Screens deposited in PubChem by ICCB-Longwood Screening Facility, Harvard Medical School.
GIV-Gai inh: GIV-Galpha-i interaction inhibition | 210,000 tested, 0.42% active | Galpha-i3/FITC-GIV peptide fluorescence polarization, 90 min; stronger effect = lower value; scaled: aluminum fluoride 0%, vehicle 100% | P08753 | percent of control (FP), % (concentration not given with the values);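 active means replicate mean at 85% of control or lower, very high polarization wells dropped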;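 further: wells of about 15 µL received 100 nL stock; the first replicate is given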
Target sequence (P08753 whole entry, looked up): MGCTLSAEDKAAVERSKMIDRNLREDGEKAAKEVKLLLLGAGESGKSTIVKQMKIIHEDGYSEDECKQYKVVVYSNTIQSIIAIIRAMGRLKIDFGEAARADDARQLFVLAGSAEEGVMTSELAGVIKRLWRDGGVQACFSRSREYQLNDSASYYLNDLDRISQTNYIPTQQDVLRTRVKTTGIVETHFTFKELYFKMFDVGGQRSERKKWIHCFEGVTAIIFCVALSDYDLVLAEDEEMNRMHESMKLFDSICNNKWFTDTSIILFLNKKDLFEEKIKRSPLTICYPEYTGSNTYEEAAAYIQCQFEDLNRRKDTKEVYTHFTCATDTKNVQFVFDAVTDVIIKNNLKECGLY
Sa growth 42C: inhibitors of Staphylococcus aureus growth at 42 °C; AID 720641; 170,000 tested, 0.53% active; relative growth, % (test concentration not listed); S. aureus RN4220 growth, OD600, 20 h; stronger effect = lower value;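 active means growth at 42 °C up to 50% and 20 or more points under that at 30 °C, or under 10% at both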;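 further: 300 nL library stock went into each well; scaled to the means of positive and negative controls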
HCMV NEC inh: inhibitors of HCMV UL50-UL53 nuclear egress complex interaction; 190,000 tested, 0.15% active; inhibition, % (test concentration not listed); HTRF UL50-UL53 interaction, normalized percent inhibition;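 active means both replicates at 50% or more, plus weaker picks with an unusually low signal ratio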;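 further: stock transfer was 100 nL into about 20 µL; 0% = negative control wells and 100% = wells with untagged competitor protein; inactives centre near -12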
Sa growth 42C second temp: further read-out of Sa growth 42C, marked with its call; relative growth, %; measured here: growth at 30 °C;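 optical density after 20 h as mean of two plates; 100% = untreated growth and lower means inhibition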
Starred values were filed as active, the others as inactive; · = no result given; & = joins results of further samples.

canonical_smiles,GIV-Gai inh,Sa growth 42C,Sa growth 42C second temp,HCMV NEC inh
O=C(Nc1cc2cc(Br)ccc2oc1=O)C1CCCCC1,·,74.3,90.3,-14.8
CC(C)[C@H](NC(=O)Cc1ccccc1)C(=O)OCn1nnc2ccccc2c1=O,·,89.1,91.8,-17.4
CCOC(=O)c1cnc(Sc2ccccc2N)nc1C(F)(F)F,100.1,84.7,84.3,-32.4
Cc1ccccc1CSc1nc(-c2ccccc2)nc2c1Cc1c(CO)cnc(C)c1O2,109.3,93.8,92.3,·
Cc1cc(C)cc(NC(=O)c2cnc(N(C)C)nc2)c1,98.6,·,·,-20.0
COc1cc2c(cc1OC)CN(CC1=CCC3CC1C3(C)C)CC2 (stereo unspecified),102.1,101.0,105.1,-22.9
O=C(CCSCCc1ccccn1)Nc1ccc(Cl)cc1,98.5,91.5,83.2,·
Cc1c(C)n(-c2cc(F)cc(F)c2)c2ncnc(Nc3ccc4c(c3)OCCO4)c12,105.3,·,·,-28.4
CC1=NN(c2ccc(Cl)cc2)C(=O)C1CCOC(=O)c1nn(-c2ccccc2)nc1C (stereo unspecified),107.7,98.7,83.4,-11.9
O=C(O)c1ccc(C(=O)c2cc(C(=O)O)ccc2C(=O)O)cc1,101.3,104.2,97.7,-8.6
CCOC(=O)c1c(NC(=O)c2ccc(S(=O)(=O)N3CCCC(C)C3)cc2)sc2c1CC(C)(C)NC2(C)C (stereo unspecified),98.4,123.3,100.0,·
CS(=O)(=O)N1CCCc2cc(C(=O)CSc3nnc(CN4CCCC4=O)o3)ccc21,·,94.4,94.5,-30.2
COc1cc2oc(=O)c(CC(=O)N3CCCCC3)c(C)c2cc1Cl,95.3,99.3,81.6,-32.6
O=C(CCCSc1nc(-c2ccco2)cc(C(F)(F)F)n1)Nn1cnnc1,104.4,96.9,97.0,-56.9
O=C(CCNS(=O)(=O)c1ccc2c(c1)CCN2C(=O)C1CC1)N1CCN(c2cccc(Cl)c2)CC1,108.0,101.5,93.3,·
N#Cc1ccc(-c2ccc(OCC3CNC(=O)O3)cc2)cc1 (stereo unspecified),104.1,90.3,53.8,0.5
Nc1nc(-c2ccc3c(c2)CCCC3)cc(C(F)(F)F)n1,99.6,89.5,88.2,-4.0
COc1ccc2c(c1)c1c(c(=O)n(-c3ccccc3C)c(=O)n1CC(=O)N1CCCC1)n2C,111.3,77.6,88.7,·
CCC(=O)Nc1ccccc1C(=O)NCC1CCCO1 (stereo unspecified),105.6,77.4,85.3,4.6
CCCCNc1oc(-c2ccc(COc3ccc(OC)cc3)o2)nc1C#N,99.3,96.7,96.7,-10.5

Ordered by the number under Sa growth 42C second temp (falling): 4 from the list above
| Structure | GIV-Gai inh | Sa growth 42C | Sa growth 42C second temp |
| --- | --- | --- | --- |
| CS(=O)(=O)N1CCCc2cc(C(=O)CSc3nnc(CN4CCCC4=O)o3)ccc21 | · | 94.4 | 94.5 |
| O=C(Nc1cc2cc(Br)ccc2oc1=O)C1CCCCC1 | · | 74.3 | 90.3 |
| CCC(=O)Nc1ccccc1C(=O)NCC1CCCO1 (stereo unspecified) | 105.6 | 77.4 | 85.3 |
| CCOC(=O)c1cnc(Sc2ccccc2N)nc1C(F)(F)F | 100.1 | 84.7 | 84.3 |

The results go on:
canonical_smiles,GIV-Gai inh,Sa growth 42C,Sa growth 42C second temp,HCMV NEC inh
COc1ccc(CCNC(=O)c2oc(=O)c3ccccc3c2-c2ccccc2)cc1OC,99.1,92.0,84.0,·
COc1ccc(C(=O)N(c2ccccc2)C2C=CS(=O)(=O)C2)cc1 (stereo unspecified),102.7,99.0,90.6,-29.8
CCN(C(=O)CN1C(=O)COc2ccc(S(=O)(=O)N3CCOCC3)cc21)c1cccc(C)c1,108.2,116.4,86.5,·
CCOc1ccccc1NC(=O)c1cc2c(=O)[nH]c3ccccc3c2s1,96.9,98.3,85.5,-26.6
CC(=O)c1ccc(NC(=O)C2CCCN(S(=O)(=O)c3ccc(Br)s3)C2)cc1 (stereo unspecified),109.0,102.4,103.7,7.7
COc1ccc(Cl)cc1NC(=O)Cn1nnc2sc(-c3ccccc3)cc2c1=O,104.6,90.0,79.8,-29.4
COc1ccc(C)cc1-n1nnnc1Sc1nnnn1-c1ccccc1,·,87.5,74.8,-2.9
CCN(C(=O)CSc1nc2ccccc2n1Cc1ccc(C(=O)OC)cc1)c1ccccc1,103.2,96.6,90.0,·
COC(=O)CNC(=O)c1n[nH]c(=O)c2ccccc12,·,98.3,94.8,-31.1
Cc1ccc(-n2c(=O)c3c4c(sc3n(Cc3ccccc3F)c2=O)CCC4)cc1C,102.8,101.3,107.0,18.3
Cc1ccc2ncc(C(=O)NCc3ccccc3Cl)c(=O)n2c1,102.1,94.9,82.5,-105.8
COCCn1c(=O)[nH]c2cc(C(=O)Nc3cccc(C(C)=O)c3)ccc2c1=O,100.2,101.2,87.4,-1.3
CCCn1c2ccccc2c2cnn(CC(=O)NCCCN3CCCCC3)c(=O)c21,108.7,129.2,107.3,·
CCC(C(=O)NCc1ccc(OC)c(OC)c1)N1C(=O)CCCc2ccccc21 (stereo unspecified),112.1,·,·,-4.4
CCN1CCN(C(=O)CN2CC(C)Sc3ccccc32)CC1 (stereo unspecified),106.6,·,·,-28.4
COc1ccc(C(=O)c2oc3ccccc3c2NC(=O)c2cc(=O)c3ccc(C)cc3o2)cc1Cl,102.1,·,·,7.7
CC1=CCC2C(=O)N(c3cccc(C(F)(F)F)c3)C(=O)C2C1 (stereo unspecified),102.1,108.3,81.5,·
Cc1cc(C)nc(NS(=O)(=O)c2ccc(NC(=O)c3ccc(S(=O)(=O)N4CCCCC4)cc3)cc2)n1,105.7,·,·,-9.1
CCOc1ccc(NC(=O)c2ccc3c(c2)N(Cc2ccc(C)cc2)CCS3)cc1,103.4,101.8,96.7,·
CC(Sc1nnc(CNc2cccc(Cl)c2)n1CCc1ccccc1)C(=O)O (stereo unspecified),98.8,117.2,89.1,17.8

The results go on.
Compound	GIV-Gai inh	Sa growth 42C	Sa growth 42C second temp	HCMV NEC inh
COc1ccc(N2CCN(C(=O)c3cc4ccccn4n3)CC2)cc1	96.0	103.8	86.5	-0.6
Cc1ccccc1-c1nc(CS(=O)(=O)CC(=O)Nc2cccc(C(F)(F)F)c2)c(C)o1	103.6	93.3	100.2	1.3
N#Cc1nc2ccccc2[nH]1	104.8	83.9	85.6	9.1
O=C(Nc1cccc(CO)c1)C(F)(F)F	·	100.6	97.2	5.0
C=C(C)CSc1nc2c(C)cccc2[nH]1	95.7	76.4	77.1	-19.3
Cc1ccc(-n2c(=O)c3c4c(sc3n(Cc3cccc(Cl)c3)c2=O)CCC4)cc1C	102.6	96.5	107.4	23.7
COc1ccc(N2CCN(C(c3cccs3)C(C)NC(=O)c3ccccc3OC)CC2)cc1 (stereo unspecified)	100.2	99.3	66.8	·
CC1Cc2ccccc2N1S(=O)(=O)c1cccc(C(=O)NCc2ccco2)c1 (stereo unspecified)	·	113.8	88.7	-16.6
Cc1cc(C)nc(SCC(=O)c2ccc(O)cc2O)n1	101.9	86.1	81.8	-23.6
O=C(Cn1cnc2c(nnn2Cc2ccc(Cl)cc2)c1=O)N1CCCc2ccccc21	99.2	81.0	84.9	·
CCOc1ccc(NC(=O)CSc2oc(-c3cccs3)nc2S(=O)(=O)c2ccc(Cl)cc2)cc1	102.6	101.2	81.2	-15.6
CCOC(=O)c1cc(OC(=O)c2ccccc2OC)n(-c2ccccc2)n1	103.0	86.8	82.4	-19.5
Cc1cc(C)cc(NC(=O)CCC2=NS(=O)(=O)c3ccccc3N2)c1	103.5	102.2	94.5	-10.2
Cn1c(=O)n(-c2ccc(F)cc2)c2nc(-c3ccc(F)c(Br)c3)nc(C(N)=O)c21	105.5	·	·	-12.0
Cc1noc2c1C(c1ccc(Br)cc1)C1=C(CC(c3ccccc3)CC1=O)N2 (stereo unspecified)	104.1	·	·	-7.0
CS(=O)(=NS(=O)(=O)c1cc(S(=O)(=O)c2ccccc2)cs1)c1ccc(Cl)cc1 (stereo unspecified)	98.7	102.5	86.7	-23.8
Nc1ncc(S(=O)(=O)Cc2cccs2)c(N)n1	107.8	81.2	78.7	-12.4
CC1(C)O[C@@H]2[C@@H](CO[C@@]3(COS(N)(=O)=O)OC(C)(C)O[C@@H]23)O1	·	93.6&97.1	90.5&90.2	-44.0&-2.9
CCn1c(O)c(C=NCc2cccs2)c(=O)n(CC)c1=S	101.9	99.6	112.9	9.0
Cc1cc(C)cc(-n2c(SCC(=O)NCc3ccc(F)cc3)nc3c([nH]c4ccccc43)c2=O)c1	101.8	106.6	72.8	·
CN(C)S(=O)(=O)c1ccc(=O)n(CC(=O)Nc2ccc3[nH]c(=O)[nH]c3c2)c1	·	78.5	97.1	1.7
CN(C)CCSc1nnc2sc3ccccc3n12	108.0	91.6	92.7	4.1
CCOc1ccc(C(=O)Nc2cccc(C(=O)OCc3cc(=O)n4nc(C5CC5)sc4n3)c2)cc1	103.8	69.6	84.2	·
N#Cc1cccc(NC(=O)C2CCN(c3nc(-c4ccc(Cl)cc4)no3)CC2)c1	103.4	96.1	90.5	·
COc1c(Cl)cccc1-c1cn2ccc(C)cc2n1	103.3	121.9	73.5	-32.0
CCOC(=O)/C=c1\[nH]c(=O)/c(=C\c2ccc3c(c2)OCO3)s1	·	89.7	90.2	-17.2
CN(C)S(=O)(=O)c1ccc(C(=O)N2CCN(Cc3ccc4c(c3)OCO4)CC2)cc1	·	92.1	103.3	-7.8
O=C(NCc1noc(CCc2ccccc2)n1)c1ccc(-c2noc(C3CC3)n2)cc1	101.7	·	·	-2.6
CCCCn1cc(S(=O)(=O)c2cc(C)ccc2C)c(=O)c2cc(F)c(F)cc21	106.9	108.4	83.9	-27.5
Cc1oc(-c2ccc(Cl)cc2)nc1CSc1nc(C(F)(F)F)cc(=O)[nH]1	105.7	·	·	-33.0
CCCN(CCC)CCNC(=O)c1cc(Sc2ccc(Cl)cc2)nc2ccccc12	106.5	103.5	96.5	·
O=C(O)C1(S(=O)(=O)c2ccc(Br)cc2)CCCC1	·	104.7	95.8	-4.1
Nc1cccc(-c2nc3cc(Cl)ccc3o2)c1	105.0	99.2	90.4	-5.7
Cc1cccc(Cc2c(C)nc3nc(SCC(=O)NCc4ccc(F)cc4)nn3c2C)c1	104.0	85.8	44.0	-12.1
Cc1ccc(Cn2c(=O)n(Cc3ccccc3)c(=O)c3c4c(sc32)CCC4)cc1	102.9	123.8	101.5	·
Cc1oc(C(C)(C)C)c(CN2CCOCC2)c1C(=O)O	·	84.5	98.8	-1.9
CCNCC(=O)Nc1ccc(S(N)(=O)=O)cc1	·	109.7	95.0	7.8
C=CCNC(=O)c1ccncc1	·	113.6	95.9	1.6
Cc1oc2cc(Br)c(OCC(=O)OCc3ccccc3)cc2c1C(=O)OC(C)C	100.3	·	·	-8.1
CC(C)(C)NC(=O)CSc1ccc(Cl)cc1	·	94.9	115.4	-7.6
CC(O)C(Nc1ccccc1CC(=O)OC(C)(C)C)C(=O)O (stereo unspecified)	96.1	107.1	88.0	-3.3
CCc1cccc(NC(=O)c2cnc(N3CCOCC3)c3ccccc23)c1	105.4	95.7	93.8	·
CC(C(=O)OCC(=O)c1ccccc1)N1C(=O)C2C3C=CC(C3)C2C1=O (stereo unspecified)	103.5	114.1	80.2	·
O=C(COC(=O)c1ccc[nH]c1=O)NCC12CC3CC(CC(C3)C1)C2	·	74.0	90.2	-29.6
O=C(CCSCc1ccccc1F)NCc1cccnc1	103.7	96.4	83.5	-18.0
COc1ccccc1NC(=O)COC(=O)c1ccccc1Br	·	89.4	88.3	-8.8
CC(=O)NCc1c(N(C)C)cccc1N(C)C	104.4	104.6	87.9	-0.9
Cc1[nH]nc2c1C(c1cccc3ccccc13)CC(=O)N2 (stereo unspecified)	103.1	105.7	90.9	-12.7
Cc1ccc(C)c(S(=O)(=O)N2CCc3cc4cccc(C)c4nc32)c1	98.2	·	·	-15.7
CCOC(OCC)n1c(=S)n(C(OCC)OCC)c2ccccc21	·	82.1	83.3	-5.6
CN(C)C(=O)c1ccccc1NS(=O)(=O)c1ccc(F)cc1	·	119.3	100.0	6.8
CCc1nn(CC(=O)N2CCC(C(N)=O)CC2)c(=O)c2cc3sccc3n12	104.1	105.2	95.2	·
O=C(CCc1nc2cccnc2n1Cc1cccs1)NCc1ccc2c(c1)OCO2	136.9	101.0	84.2	-22.0
COc1ccc(Cl)cc1-n1c(SCc2ccccc2F)nnc1-c1cc2occc2n1C	104.8	90.1	93.0	5.3
O=C(Cn1c(=O)n(CC2CCC(C(=O)N3CCCCC3)CC2)c(=O)c2sccc21)N1CCCC1 (stereo unspecified)	104.5	·	·	-17.0
CC(C)C(=O)Nc1cccc(NC2=NS(=O)(=O)c3ccccc32)c1	105.3	79.8	92.0	-23.8
